# MenB inh: blocks the Mycobacterium tuberculosis MenB enzyme. inhibition, %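 (about 12 µg/mL by stock and volumes)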. P9WNP5. MenB enzyme assay, absorbance read-out; some hits fall short of the stated cut. 100,000 tested, 0.43% active;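 active = mean of two replicates above 30%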;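 note: 0% = no compound and 100% = wells with inactive enzyme; the first replicate is given; strong numbers were not always called active; inactives centre near -10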
# Target sequence (P9WNP5 whole entry, looked up): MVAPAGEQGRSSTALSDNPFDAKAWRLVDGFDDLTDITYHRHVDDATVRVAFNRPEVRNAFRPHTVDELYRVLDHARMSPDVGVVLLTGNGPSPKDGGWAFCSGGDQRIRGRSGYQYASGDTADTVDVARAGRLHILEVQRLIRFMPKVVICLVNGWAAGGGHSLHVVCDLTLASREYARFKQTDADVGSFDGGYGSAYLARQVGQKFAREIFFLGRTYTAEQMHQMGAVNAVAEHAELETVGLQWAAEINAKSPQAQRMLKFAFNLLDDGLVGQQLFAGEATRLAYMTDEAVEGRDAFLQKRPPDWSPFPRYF
# PV pol inh: inhibitors of poliovirus RNA polymerase binding and polymerization; poliovirus polymerase elongation, fluorescence polarization; active compounds read low; % elongation, % (compound at 16.7 µg/mL); 150,000 tested, 0.66% active; in the data active = % elongation below about 90%; note: some results filed as inactive read as strong as hits
# Target sequence (P03300 1749-2209 limits assumed): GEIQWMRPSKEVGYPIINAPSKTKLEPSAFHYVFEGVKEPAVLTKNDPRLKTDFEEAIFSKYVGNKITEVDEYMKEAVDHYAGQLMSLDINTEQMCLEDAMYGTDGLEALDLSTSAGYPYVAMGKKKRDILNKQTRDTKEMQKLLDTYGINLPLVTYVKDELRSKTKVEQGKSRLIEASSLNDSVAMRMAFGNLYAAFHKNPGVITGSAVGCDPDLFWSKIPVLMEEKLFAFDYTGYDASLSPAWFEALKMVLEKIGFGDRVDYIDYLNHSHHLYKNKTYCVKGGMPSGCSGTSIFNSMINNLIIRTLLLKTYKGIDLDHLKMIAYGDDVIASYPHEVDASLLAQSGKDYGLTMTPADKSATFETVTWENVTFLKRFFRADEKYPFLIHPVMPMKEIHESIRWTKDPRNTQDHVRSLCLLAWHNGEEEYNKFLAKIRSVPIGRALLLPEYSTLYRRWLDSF
# Mtb MbtI inh: inhibitors of Mycobacterium tuberculosis siderophore enzyme MbtI | purified MbtI enzyme, fluorescence intensity read-out | inhibition, %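 (about 17 µg/mL by stock and volumes)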 | 100,000 tested, 0.89% active;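 active = above 50% in both replicates, above 80% if mildly self-fluorescent; inactive = the rest, strongly fluorescent compounds included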;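 note: 0% = mean of negative and 100% = mean of positive controls; one replicate is shown; some compounds called inactive have numbers as strong as hits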
# PV pol inh intensity: recorded beside PV pol inh, whose call it bears; % elongation; measured here: total intensity read-out; formula for this scale not given here;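 total fluorescence in place of polarization; lower means less elongation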
# * marks the source's active call; other numbers are inactive results; i = inactive; / = not tested or not shown.
mol,MenB inh,PV pol inh,PV pol inh intensity,Mtb MbtI inh
CCOC(=O)Cc1c(C)nc2c(-c3ccccc3)c(C(F)(F)F)nn2c1C,-16.0,101.0,99.0,57.5
CCSc1nc(C)c(CC)c(C)c1C(N)=O,-23.0,105.0,105.0,-9.3
CC1=CC(=C(C#N)C#N)C=C(C)N1c1cccnc1,-2.7,104.0,119.0,-5.2
CCCNC(=O)C1CCN(C(=O)c2ccccc2Cl)CC1,0.3,101.0,106.0,/
CN1CCN(C(=S)C(=O)NCc2ccccc2)CC1,-13.2,98.0,98.0,-12.1
CC1(C)Cn2c(nnc2-c2ccccc2)S1,4.2,100.0,102.0,-14.2
COC(=O)c1cc(-c2ccccc2)sc1NC(=S)Nc1ccn(C)n1,-29.6,101.0,102.0,-7.5
CCc1nn2c(=O)cc(COc3ccccc3C)nc2s1,-14.2,100.0,103.0,21.0
CCCc1ccc(O)c(N)c1,-73.0,114.0,122.0,/
Fc1ccc(CNc2nc3c(c(C(F)(F)F)n2)CCCCC3)cc1,-4.2,100.0,100.0,-6.1
CC1CC(=O)N(c2cc(C(F)(F)F)cc(C(F)(F)F)c2)C1=O (configuration not stated),-3.6,103.0,102.0,-4.5
CC1CN(CN2C(=O)C(=Nc3ccc4ccccc4c3)c3ccccc32)CC(C)O1 (configuration not stated),-8.4,110.0,110.0,/
CN(C)/C=N/n1cnc2sc3c(c2c1=O)CCCC3,-10.8,105.0,101.0,-6.0
COc1ccc(N2CCN(C=C3C(=O)NC(=O)NC3=O)CC2)cc1,-58.0,100.0,108.0,28.4
CC(C)Nc1ccc(-n2nc3ccccc3[n+]2[O-])cc1,-44.7,103.0,104.0,/
Cc1ccc(N=C(C#N)C2=C(O)c3ccccc3C2=O)c(Cl)c1,-9.6,102.0,103.0,1.7
COc1ccc(OC)c(-c2n[nH]c(C(=O)O)c2C)c1,-60.7,102.0,101.0,-6.0
CCOC(=O)c1cnc2ccc(F)cc2c1NCc1cccnc1,-12.7,105.0,107.0,/
CCCN(C(=O)c1cc2cc3ccc(OC)cc3nc2o1)c1ccc(CC)cc1,-12.0,103.0,102.0,1.4
COc1ccc(CN2Cc3ccccc3C2)cc1,-4.4,99.0,104.0,-13.0
O=S(=O)(c1ccccc1)c1nc(N2CCCc3ccccc32)sc1Cl,-36.6,101.0,95.0,-118.2
COC(Cn1c(-c2ccccc2)n[nH]c1=S)OC,-10.8,107.0,106.0,3.4
CC(C)(CC(=O)O)CC(=O)Nn1c(=S)[nH]c2ccccc2c1=O,-7.2,102.0,104.0,-4.8
Cc1ccc2c(c1)=C(c1sc(=S)n(CC(=O)O)c1O)C(=O)N=2,-40.6,105.0,101.0,-0.5
CC1CC(C(F)F)n2nc(C(=O)O)cc2N1 (configuration not stated),-44.8,100.0,101.0,-22.0
CCc1ccccc1NC(=O)C(CC)Sc1nc2ccncc2[nH]1 (configuration not stated),-4.8,102.0,103.0,-6.4
CCCCn1cnc2c(c1=O)c1nc3ccccc3nc1n2CC1CCCO1 (configuration not stated),7.1,103.0,100.0,-63.8
Cc1ccc2c(CC(=O)N3CCc4ccccc43)coc2c1,-33.0,104.0,102.0,-1.8
Cn1ccnc1SCc1cc(=O)c(OC(=O)c2ccccc2)co1,2.6,102.0,108.0,-3.9
Cc1ccn2cc(CNC(=O)c3ccccc3)nc2c1,15.6,102.0,105.0,-3.5

# The list goes on.
mol,MenB inh,PV pol inh,PV pol inh intensity,Mtb MbtI inh
CC(C)(C)c1ccc(-c2cc(NS(=O)(=O)c3ccccc3)c(C(N)=O)s2)cc1,-7.4,99.0,97.0,-14.8
CCS(=O)(=O)Nc1ccc(Cl)cn1,-5.8,102.0,100.0,89.8
CC(NC(=O)CSc1nnnn1C)c1ccccc1 (configuration not stated),13.3,102.0,109.0,-16.8
CC1(C)CC(=O)C=C(Nc2ccc(N3CCOCC3)cc2)C1,-39.2,106.0,101.0,2.8
CCOC(=O)c1ccc(CN(Cc2ccccc2C)S(=O)(=O)c2ccc3c(c2)OCCO3)cc1,-27.9,104.0,102.0,-5.2
Cc1cccc(N2CCN(C(=O)c3ccncc3)CC2C)c1 (configuration not stated),-15.1,103.0,106.0,2.3
O=C(c1noc2c1CCCC2)N1CCCCC1,-15.9,102.0,102.0,-6.6
CC[C@H]1CN2CCC1C[C@H]2[C@H](O)c1ccnc2ccc(OC)cc12 (some centres not stated),-18.5,102.0,100.0,i
CN(c1ccc(O)cc1)S(=O)(=O)c1ccc(Cl)c(C(F)(F)F)c1,-4.7,100.0,106.0,-6.3
CNC(=O)NC(=O)C(C)N1CCN(c2ccccc2)CC1 (configuration not stated),-3.5,106.0,115.0,-2.1
CCOc1ccccc1NC(=O)C(NCc1ccco1)c1ccccc1 (configuration not stated),-20.3,105.0,103.0,-40.4
N#CC1(NC(=O)Cn2cnc3c(Cl)cc(Cl)cc3c2=O)CCCCC1,-0.7,104.0,109.0,0.0
CNC(=O)c1csc(Cc2c(Cl)sc3ccc(Cl)cc23)n1,-26.5,106.0,106.0,0.9
CCCCC(=O)Nc1ccc(C(=O)N2CCN(C)CC2)cc1,6.4,100.0,103.0,-5.2
CN1CCN(C(=O)C(C(=O)N2CCN(C)CC2)C23CC4CC(CC(C4)C2)C3)CC1,-2.7,101.0,101.0,-7.9
O=C(CSc1nc2ccccc2c(=O)n1Cc1ccco1)c1ccccc1,-10.7,101.0,107.0,-6.4
O=C(O)CC1SC(=O)N(Cc2ccccc2)C1=O (configuration not stated),7.7,101.0,99.0,-5.6
CCC(NC(=O)Nc1cc(Cl)c(OC)cc1OC)c1c(-n2cccc2)sc2c1CCN(C)C2 (configuration not stated),-3.6,103.0,103.0,7.3
O=C(COC(=O)c1ccc(O)cc1)NCc1ccccc1,/,103.0,104.0,-7.2
CCC(C)NC(=O)c1ccc(NC(=O)C2=CSCCO2)cc1 (configuration not stated),-25.8,105.0,103.0,-11.7
c1ccc(C2C3=C(Nc4ncnn42)c2ccccc2CCC3)cc1 (configuration not stated),10.1,102.0,103.0,/
COc1ccc(CCCC(=O)O)cc1,0.0,101.0,107.0,/
CCC(=O)Nc1cccc(NC(=O)c2cc3ccccc3o2)c1,-11.2,103.0,111.0,/
O=C(COc1ccc2ccc(=O)oc2c1)N1CCOCC1,-19.0,105.0,107.0,-5.7
CCOC(=O)C1=NN(c2ccc(OC)cc2)C(c2ccccc2)CC1=O (configuration not stated),-154.8,107.0,115.0,/
COc1ccc2nc(-c3ccco3)c(-c3ccco3)nc2c1,-165.5,95.0,98.0,29.5
COC(=O)c1ccc(C2C3C(=CC4CCC3N4C)C(C#N)=C(N)C2(C#N)C#N)cc1 (configuration not stated),8.1,101.0,109.0,49.9
CCn1c(=O)n(CC)c2cc(S(=O)(=O)NC3CCCCC3)ccc21,-18.1,115.0,114.0,/
CC(NC(=O)c1ccco1)C(=O)N(C)Cc1ccc(C(F)(F)F)cc1 (configuration not stated),-4.4,104.0,106.0,-2.1
CCOC(=O)c1[nH]c(I)c(C(=O)OCC)c1C,-37.9,99.0,102.0,-3.1

# Reprinted from the part before: two entries, then new ones.
mol,MenB inh,PV pol inh,PV pol inh intensity,Mtb MbtI inh
CC(NC(=O)c1ccco1)C(=O)N(C)Cc1ccc(C(F)(F)F)cc1 (configuration not stated),-4.4,104.0,106.0,-2.1
CCOC(=O)c1[nH]c(I)c(C(=O)OCC)c1C,-37.9,99.0,102.0,-3.1
CCOC(=O)C1CCN(C(=O)c2nn(C)c(=O)c3ccccc23)CC1,-17.8,103.0,110.0,-16.6
CC(C)n1c(-c2nonc2N)nc2ccccc21,9.3,104.0,104.0,5.0
O=C(NCc1ccc(Cl)cc1)c1ccc2nc[nH]c2c1,-8.5,97.0,108.0,-1.1
CC(C)NS(=O)(=O)c1ccc(N=Cc2c(O)n(C)c(=O)n(C)c2=O)cc1,-18.7,104.0,112.0,32.1
COc1ccc(-c2cc(C(=O)N(C)Cc3ccccc3)no2)cc1S(=O)(=O)N1CCOCC1,-6.4,101.0,103.0,-9.2
C(=N\C(/N=C/c1ccccc1)c1ccccc1)/c1ccccc1,-3.2,110.0,116.0,/
CC(/C(O)=C(\C#N)c1nc2ccccc2s1)N1C(=O)c2ccccc2C1=O (configuration not stated),10.0,70.0,229.0,30.5
CC(=O)Nc1cccc(NC(=O)c2c[nH]c(=O)n(-c3ccccc3)c2=O)c1,-3.1,100.0,102.0,7.8
O=C(O)c1cccc(NCc2cccnc2)c1,3.2,100.0,103.0,0.0
Cc1ccc(-c2cc(C(F)(F)F)c3c(=O)[nH]c(N)nc3n2)cc1,-11.8,105.0,108.0,-22.8
COC(=O)/C=C1\SC(=Nc2ccc(OC)cc2)NC1=O,-13.2,98.0,98.0,-20.3
CCC(C)c1ccccc1N=Cc1cccs1 (configuration not stated),/,100.0,96.0,-0.8
COC(=O)c1ccc(NC(=O)CSC2=NC(c3ccccc3)CC(=O)N2)cc1 (configuration not stated),-43.7,103.0,101.0,-0.5
O=C(NCCc1nc(-c2ccc(Cl)cc2)no1)c1cccs1,1.5,99.0,100.0,-3.8
CNC(=O)NC1CC(=O)N(c2ccc(OC)cc2)C1 (configuration not stated),-58.0,105.0,103.0,-10.2
O=c1c2c3nc4ccccc4nc3n(C3CCCC3)c2ncn1Cc1ccccc1,-9.3,103.0,104.0,-20.1
O=C(Cn1nnc2ccccc2c1=O)NC1CCCCC1,-71.1,103.0,101.0,2.9
Cc1cc(C)n(-c2nc3ccccc3nc2N2CCN(S(=O)(=O)c3ccc(F)c(C)c3)CC2)n1,-1.9,105.0,110.0,7.1
CCCC(CCC)=NNc1ncnc2sc(C)c(C)c12,-54.2,105.0,110.0,3.3
C=CCc1c(C)nc(SC)nc1Nc1ccccc1,0.8,104.0,106.0,/
CCC(=O)Nc1ccc(-c2nn3c(CC)nnc3s2)cc1,-43.0,103.0,99.0,88.3
CC(NC(=O)c1cccc(S(=O)(=O)N(C)C)c1)c1ccccc1 (configuration not stated),/,103.0,102.0,-2.6
Ic1ccccc1/C=N/n1cnnc1,/,103.0,107.0,-1.5
COC(=O)C1C(c2ccccc2)C(C(=O)N2CCOCC2)C1c1ccccc1 (configuration not stated),26.9,103.0,102.0,-4.8
Cc1ccc(NC(=O)C(NC(=O)c2ccccc2)C(C)C)cc1 (configuration not stated),/,101.0,105.0,-5.5
CN1C(=O)C[n+]2ccccc2C1C(=O)Nc1ccccc1 (configuration not stated),-0.8,103.0,106.0,60.5
O=C1c2ccccc2C(=O)N1CCC12CC3CC(CC(C3)C1)C2,0.0,101.0,103.0,11.2
Cc1cccc(N(C)C(=O)/C=C/C(=O)O)c1,9.3,102.0,106.0,7.0
CC(=O)N1NC(c2ccccc2)CC1c1ccccc1 (configuration not stated),-20.5,104.0,110.0,/
Nc1ccccc1C(=O)N1CCNC(=O)C1,-32.4,103.0,99.0,-4.2

# Further results
mol,MenB inh,PV pol inh,PV pol inh intensity,Mtb MbtI inh
CSCC(=O)NCc1ccc(CN2CCCC2)cc1,7.7,103.0,100.0,4.8
COc1ccc(C2NC(=O)c3[nH]nc(-c4cccc(OC)c4)c32)cc1 (configuration not stated),-7.0,104.0,105.0,-3.4
O=C(c1ccc(COc2ccccc2)o1)N1CCCC(c2nc3ccccc3s2)C1 (configuration not stated),-7.9,98.0,101.0,3.2
CC1CN(S(=O)(=O)c2cc(C(=O)N3CCNC(=O)C3)ccc2Cl)CC(C)O1 (configuration not stated),4.8,104.0,108.0,6.7
CN(C)c1ccc(C=Nc2ccc3c(c2)ncn3C(C)(C)C)cc1,/,97.0,94.0,-87.1
CCN(CC)c1ccc(C(=O)N=c2sc3ccccc3n2C)cc1,-5.9,99.0,102.0,104.5
FC(F)(F)c1ccc(Sc2nnc(-c3cccs3)n2CC2CCCO2)nc1 (configuration not stated),-20.3,100.0,101.0,-10.8
c1ccc(-c2nnc(COc3ccc4ccccc4c3)o2)cc1,-21.8,103.0,107.0,-6.3
NS(=O)(=O)c1ccc(CCNc2ncnc3c2cnn3-c2ccc(F)cc2)cc1,-23.6,102.0,97.0,70.4
CN1c2ccccc2Oc2nnc(N3CCN(Cc4ccccc4)CC3)cc21,-5.4,102.0,104.0,-348.6
CN(c1ccc(Br)cc1)c1ncnc2c1nc1n2CCCCC1,-5.5,99.0,102.0,-24.8
CC1=C(C(=O)OCc2ccc(C)cc2)C(c2cc3c(cc2Br)OCO3)CC(=O)N1 (configuration not stated),-12.7,103.0,106.0,-12.2
O=C1Nc2ccccc2N(O)N1c1ccc(S(=O)(=O)Nc2ccccn2)cc1,6.4,99.0,104.0,16.0
COc1ccc2c(c1)CCCN2,-20.1,104.0,104.0,25.5
Cc1onc(-c2ccccc2)c1C(=O)NCC1COc2ccccc2O1 (configuration not stated),-22.7,111.0,109.0,-2.8

# Taken from above, 2 compounds:
mol,MenB inh,PV pol inh,PV pol inh intensity,Mtb MbtI inh
CN(c1ccc(Br)cc1)c1ncnc2c1nc1n2CCCCC1,-5.5,99.0,102.0,-24.8
CC1=C(C(=O)OCc2ccc(C)cc2)C(c2cc3c(cc2Br)OCO3)CC(=O)N1 (configuration not stated),-12.7,103.0,106.0,-12.2

# No enrichment for hits (roughly 1.7% active in at least one column).
